TAR Tat displ – TAR RNA-Tat peptide displacers, HIV-1, primary screen, biochemical, FRET, FAM/TAMRA-labeled Tat; z-score (no concentration beside the values); HIV-1 TAR RNA, Tat peptide displacement FRET; active compounds read high; 100,000 compounds, 0.6% hits;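 also: score is relative to mean and SD of negative controls; some compounds called inactive have numbers as strong as hits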
CDC25B-CDK2 inh – primary biochemical HTRF screen for blockers of M-phase inducer phosphatase 2 binding to CDK2/cyclin A; P30305+P24941; HTRF CDC25B-CDK2/CyclinA binding, anti-His/anti-Flag; active compounds read high; z-score (concentration not given with the values); 94,000 compounds, 0.72% hits; AID 1259370, 2018;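 also: score is relative to mean and SD of negative controls; strong numbers were not always called active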
* marks the source's active call; other numbers are inactive results; / = no result given.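 The calls were made as follows: active = z-score from 3 up in half or more of its runs; inactive = the rest.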

The first six records as a preview:
SMILES	TAR Tat displ	CDC25B-CDK2 inh
CCCSc1nc(N2CCCC2)c2c(c1C#N)CC(C)(C)OC2	1.17	-0.34
N/C(=N\S(=O)(=O)c1cc(Cl)sc1Cl)c1ccc(Cl)cc1	/	0.18
CCCNS(=O)(=O)c1c(C)[nH]c(C)c1C(=O)OCC	2.24	/
O=C(CSc1nnc(CNC(=O)c2ccco2)n1-c1ccc(F)cc1)Nc1nccs1	/	0.01
CN(C)c1ccc(NC(=O)Cn2cc3c(n2)CCCC3)cc1	1.8	-2.59
Cc1csc(NC(=O)CSc2nc3[nH]ncc3c(=O)[nH]2)n1	1.46	/

This part in full (from the top)
SMILES	TAR Tat displ	CDC25B-CDK2 inh
CCCSc1nc(N2CCCC2)c2c(c1C#N)CC(C)(C)OC2	1.17	-0.34
N/C(=N\S(=O)(=O)c1cc(Cl)sc1Cl)c1ccc(Cl)cc1	/	0.18
CCCNS(=O)(=O)c1c(C)[nH]c(C)c1C(=O)OCC	2.24	/
O=C(CSc1nnc(CNC(=O)c2ccco2)n1-c1ccc(F)cc1)Nc1nccs1	/	0.01
CN(C)c1ccc(NC(=O)Cn2cc3c(n2)CCCC3)cc1	1.8	-2.59
Cc1csc(NC(=O)CSc2nc3[nH]ncc3c(=O)[nH]2)n1	1.46	/
COC(=O)c1c(O)c2ccccc2[nH]c1=S	3.54	-0.7
O=c1c(S(=O)(=O)c2cccc(F)c2)c[nH]c2c(F)cc(Cl)cc12	1.4	-0.93
O=C(NCc1ccc2c(c1)OCO2)C1CC(=O)N(CCc2c[nH]c3ccc(Cl)cc23)C1 (configuration not stated)	-1.52	0.16
Cc1ccc(S(=O)(=O)Nc2c3ccccc3c(O)c3c4c(oc23)CC(C)(C)CC4=O)cc1	/	17.9*
Cc1ccc(N2C(=O)c3cccnc3C2Nc2ccc(C)c(Cl)c2)cc1 (configuration not stated)	2.73	-2.2
CCCC(=O)Nc1c(-n2cnnc2)n[nH]c1C	0.65	-1.6
Cc1cc(C(=O)NNC(=O)c2cc(OCC(F)(F)F)ccc2OCC(F)(F)F)no1	/	0.87
CCN(CC)c1nc2c(S(=O)(=O)c3ccc(Cl)cc3)nnn2c2ccsc12	-1.01	/
CC(C)(C)c1ccc(OCc2nnc(N)s2)cc1	2.01	-3.23

Continued, overlapping the part above by 2 compounds.
SMILES	TAR Tat displ	CDC25B-CDK2 inh
CCN(CC)c1nc2c(S(=O)(=O)c3ccc(Cl)cc3)nnn2c2ccsc12	-1.01	/
CC(C)(C)c1ccc(OCc2nnc(N)s2)cc1	2.01	-3.23
CCOC(=O)c1cn(CC(=O)NN)nc1C(F)(F)F	/	-1.69
O=C(c1ccc(C#Cc2ccccc2)o1)N1CCCCC1	/	-1.37
COc1ccccc1-c1nnc2sc(COc3ccccc3Cl)nn12	0.62	-0.99
Oc1ccc2ccccc2c1N=Nc1ccccn1	/	-0.05
C(=C\c1ccccc1)/CSc1nc2ccccc2[nH]1	/	-0.38
OC(COc1ccc(Cl)c(Cl)c1)CN1CCC(Nc2nccc(C(F)(F)F)n2)CC1 (configuration not stated)	/	-0.21
O=C(C1CC(c2ccc(Cl)cc2)=NO1)N1CCOCC1 (configuration not stated)	0.57	-0.28
O=C1c2[nH]nc(-c3ccccc3O)c2C(c2ccccc2F)N1Cc1cccnc1 (configuration not stated)	0.35	-1.43
Cc1n[nH]c(C)c1C(C)C(=O)N1CCN(c2ccccn2)CC1 (configuration not stated)	0.73	/
Cc1ccc2oc(=O)c3cnn(CC(=O)NCC4CCCO4)c3c2c1 (configuration not stated)	/	-0.79
O=c1n(-c2ccccc2)c(=O)n(Cc2ccccn2)n1Cc1ccccn1	/	-0.43
CCc1nnc2c(N(C)C3CCCCC3)nc3ccccc3n12	0.79	/
COc1ccc(C)cc1NS(=O)(=O)c1c(C)nc2sc(C)cn2c1=O	1.32	/
CC(=O)N1c2ccc(S(=O)(=O)N3c4ccccc4CC3C)cc2CC1C (configuration not stated)	0.07	/
CCCN(CCC)CCNC(=O)C1=C(C)C(=O)OC12CCN(S(C)(=O)=O)CC2	0.26	/
CN(Cc1ccco1)S(=O)(=O)c1nnc(NC(=O)C(C)(C)C)s1	-0.49	-1.07
Fc1ccc(Cc2nn[nH]n2)c(Cl)c1	2.11	0.34
C=CCNC(=O)Nc1ccc2snnc2c1	2.1	10.3*
O=c1c2nccnc2nc(SCc2ccc(F)cc2)n1Cc1ccco1	1.5	-1.73
Cc1c(C(=O)N2CCN(c3ccccc3)CC2)oc2ccc3c(c12)C(O)CC(C)(C)O3 (configuration not stated)	1.24	/
CC(C)OCCCNc1c(-c2ccc(Cl)cc2)c(=O)c1=O	0.46	/
COc1ccc(NC(=O)Nc2cn(C)c(=O)c3ccccc23)cc1Cl	0.45	/
COc1cccc(OCC(O)Cn2cnc3cc(C)c(C)cc32)c1 (configuration not stated)	1.06	-0.99
Cc1ccc(-n2ncc3c(NCCC(C)C)ncnc32)cc1C	0.3	/
O=C(NCCc1c[nH]c2ccccc12)c1ccc(Cl)c(NC2=NC3CS(=O)(=O)CC3S2)c1 (configuration not stated)	-0.63	/
Cc1ccc(-c2cnc(C3CC3)o2)cc1S(=O)(=O)Nc1ccc(F)cc1	0.06	/
COc1ccc(-c2n[nH]c3c2C(c2cccc(F)c2)NC3=O)cc1 (configuration not stated)	0.38	/
CC1CSc2ccc(S(=O)(=O)N3CC=C(c4ccccc4)CC3)cc2NC1=O (configuration not stated)	0.5	/
CN(C)c1ccc(CNc2nc(-c3ccco3)nn2S(C)(=O)=O)cc1	1.4	-0.06
O=C(Nc1ccc2oc(-c3cccnc3)nc2c1)c1sc2ccccc2c1Cl	-0.13	-1.66

Copied from the entries so far, 4 compounds:
SMILES	TAR Tat displ	CDC25B-CDK2 inh
COc1ccc(-c2n[nH]c3c2C(c2cccc(F)c2)NC3=O)cc1 (configuration not stated)	0.38	/
CC1CSc2ccc(S(=O)(=O)N3CC=C(c4ccccc4)CC3)cc2NC1=O (configuration not stated)	0.5	/
CN(C)c1ccc(CNc2nc(-c3ccco3)nn2S(C)(=O)=O)cc1	1.4	-0.06
O=C(Nc1ccc2oc(-c3cccnc3)nc2c1)c1sc2ccccc2c1Cl	-0.13	-1.66

(more compounds)
SMILES	TAR Tat displ	CDC25B-CDK2 inh
COc1ccc(Nc2c3c(nc4nncn24)CCC3)cc1OC	-0.48	-1.16
Cc1cccc(-c2nnn3c2nc(NCc2ccco2)c2ccccc23)c1	7.8*	-1.75
c1ccc(N2CCCCC2)c(Nc2nc3ccccc3n3cnnc23)c1	0.25	0.41
CC(NC(=O)CSc1nc(-c2ccco2)nc2cc(=O)[nH]n12)c1nc2ccccc2n1C (configuration not stated)	0.72	/
O=C(CCc1ccc(-c2ccc(F)cc2)o1)NCC1CCCO1 (configuration not stated)	1.21	/
Cc1ccc(S(=O)(=O)NC(=S)NNC(C)(C)C)cc1	/	-1.2
CCOC(=O)c1cc(-c2ccccc2)sc1NC(=O)CSc1nc2ccccc2s1	/	-0.35
CNC(=O)c1c(NC(=O)c2cc(=O)c3cc(Cl)ccc3o2)sc2c1CCCC2	1.97	-1.8
O=C1C2C3C=CC(C4CC34)C2C(=O)N1CCO (configuration not stated)	/	-0.61
C=CCOC(=O)C1=C(C)Nc2nnnn2C1c1cccs1 (configuration not stated)	/	-0.86
O=C(NCc1ccco1)c1ccc2snnc2c1	/	-1.98
CCC1CCCCN1CCCNC(=O)C1CCCN(S(=O)(=O)N2CCCCC2)C1 (configuration not stated)	4.48*	/
O=C1CSc2ccc(S(=O)(=O)N3CCC(C(=O)N4CCCC4)CC3)cc2N1	1.42	/
CCOC(=O)c1c(S(=O)(=O)Nc2ccc(S(N)(=O)=O)cc2)c(C)n(C)c1C	1.56	/
Cc1sc2ncn(CC(=O)Nc3ccc4c(c3)OCO4)c(=O)c2c1S(=O)(=O)N1CCOCC1	/	1.17
COc1ccccc1CNc1nc2c(S(=O)(=O)c3ccccc3)nnn2c2ccsc12	-0.03	/
COC(=O)Cc1c(C)ncnc1OCC(=O)Nc1ccc2c(c1)OCCO2	/	-0.88
Cc1c(NC(=O)C2CC(c3c(F)cccc3Cl)=NO2)c(=O)n(-c2ccccc2)n1C (configuration not stated)	0.22	-1.46
CCc1cc2c3c([nH]c2cc1S(=O)(=O)NCC1CCN(CCc2cccs2)CC1)CCCC3=O	1.29	/
Cc1cc2c(NC(=O)c3ccccc3C(=O)O)cccc2nn1	/	21.4*
O=C(NC1CC1)c1ccc(NC(=O)N2CCSc3ncccc32)cc1	-1.15	/
CCOC(=O)C1=C(C)NC2=C(C(=O)CC(c3ccc(Cl)cc3)C2)C1c1ccc(OCC)cc1 (configuration not stated)	-0.04	-1.92
COc1ccc(-c2c[nH]n3c(=O)cc(C)nc23)cc1OC	-0.35	-1.3
CCOC(=O)C1=C(C)Nc2nc(C)nn2C1c1ccc(OC)c(OC)c1 (configuration not stated)	7.96	-1.13
CCc1cc2c(NCCc3ccc(C)cc3)ncnc2s1	0.85	/
Cc1cc(C)c2nc(NC(=O)Cc3csc(C)n3)sc2c1	1.02	-0.22
CCOc1ccc(Nc2nc3ccc(Cl)cc3n3cnnc23)cc1	-0.58	2.75
O=C(C1CCN(c2nn3c(=O)c4c(nc3s2)CCCC4)CC1)N1CCN(c2ccccc2)CC1	1.96	/
Cc1c2cnn(-c3ccccc3)c(=O)c2c(C)n1CC(=O)Nc1ccc2c(c1)OCO2	-0.45	-2.63
O=C(C1CCN(C(=O)N2CCOc3ccccc32)CC1)N1CCOCC1	1.12	/
CCSc1nc2c(c(=O)[nH]1)C(c1cc(OC)ccc1OC)C1=C(CC(C)(C)CC1=O)N2 (configuration not stated)	-1.61	-0.78
CSc1cccc(NC(=O)Cn2c(=O)c3cccn3c3ccccc32)c1	1.42	/
N#CC(=C1SCCS1)S(=O)(=O)Cc1ccco1	/	0.09
O=C(CSc1nc2c(c(=O)[nH]1)CCC2)Nc1ccc(F)cc1	3.04	-1.47
CCN1CCN(C(=O)C2CCCN(c3ncnc4c3nc3n4CCCCC3)C2)CC1 (configuration not stated)	0.5	/
CN(C)c1ccc(Nc2nc3ccccc3n3cnnc23)cc1	-0.56	-1.04
CCOc1ccc(S(=O)(=O)n2nnc3ccccc32)c2ccccc12	0.33	-1.18
CC(C)CCNC(=O)C1CCCN(C(=O)c2cc3sccc3n2C)C1 (configuration not stated)	/	-2.06
Cc1nnsc1C(=O)NCc1csc(-c2cccs2)n1	/	-1.3
COC(=O)c1cc(=O)nc2sc(-c3ccccc3)nn12	/	0.08
O=C(CSc1nc2ccccc2s1)N1CCN(c2ncc(C(F)(F)F)cc2Cl)CC1	/	-1.29
CCOc1ccc(/C(O)=C2\C(=O)C(=O)N(Cc3cccnc3)C2c2ccc(C(C)(C)C)cc2)cc1 (configuration not stated)	2.19	-0.4
CCOCCn1c(COc2ccc(C(C)(C)C)cc2)nc2ccccc21	/	-0.59
COC(=O)CN1C(=O)C(O)(c2c(C)[nH]c3ccccc23)c2ccccc21 (configuration not stated)	0.23	-1.95
CCN1CCN(C(=O)CCc2c(C)nc3c(c2C)c(=O)n(C)c(=O)n3C)CC1	0.96	-1.19
Cn1c(CCNC(=O)c2[nH]nc3c2COc2ccccc2-3)nc2ccccc21	1	/
Cc1ccc(NS(=O)(=O)c2cc(-c3noc(C4CC4)n3)cs2)nc1	0.1	/
CN1C(C(=O)Nc2ccc(F)cc2F)=CC(c2ccc3c(c2)OCO3)=NS1(=O)=O	1.19	-2.91
CC(C)NC(=O)N(Cc1ccc(Cl)cc1)Cc1cccs1	/	-1.92
Cn1c(CNC2CCCCC2)nc2ccccc21	-0.08	-1.73
Cc1c(C(=O)Nc2nccs2)oc2ccccc12	8.5	-0.64
O=C(NCC(c1ccco1)N1CCOCC1)c1cc(=O)c2cc(Br)ccc2o1 (configuration not stated)	-0.4	-2.37
CC(=O)Nc1ccc(NC(=O)c2ccc(C(F)(F)F)nc2C)cn1	/	-2.13
O=S(=O)(CCN(C1CCCC1)S(=O)(=O)c1ccc(Cl)cc1)N1CCNCC1	1.74	/
CC(C)C12CN3CC(C(C)C)(CN(C1)C3c1ccc(Cl)cc1)C2=O (configuration not stated)	0.84	-1.74
CC1(C)C(=O)Nc2ccc(S(=O)(=O)N3CCCc4ccccc43)cc21	0.17	/
O=C(NNC(=O)c1cccs1)c1csc(COc2ccccc2Cl)n1	/	-1.68
O=c1ncn(Cc2ccccn2)cc1-c1ccccc1	/	-1.75
CCc1nn(CC(=O)N2CCN(C)CC2)c(=O)c2cc3sccc3n12	/	0.3
COc1ccc(NC(=O)c2oc3ccccc3c2NC(=O)c2cc(=O)c3ccccc3o2)cc1	0.34	-0.55
Going on with the list:
SMILES	TAR Tat displ	CDC25B-CDK2 inh
COc1cccc(C2CC(c3cccc(OC)c3OC)n3nnnc3N2)c1 (configuration not stated)	2.04	/
CCCNC(=O)Cn1c(=O)n(CC2CCC(C(=O)N3CCC(C)CC3)CC2)c(=O)c2sccc21 (configuration not stated)	0.53	/
COc1ccc(-c2nnc3ccc(SC(C)C)nn23)cc1OC	/	-0.62
O=C(Cc1ccc(NC2=NC3CS(=O)(=O)CC3S2)cc1)Nc1ccccc1 (configuration not stated)	0.53	-0.54
O=C(CN1C(=O)C2CCCCC2C1=O)Nc1ccc(S(=O)(=O)Nc2ncccn2)cc1 (configuration not stated)	1.22	0.43
Cc1nn(C(C)C(=O)NC2CCCC2)c(=O)c2c1sc1ccccc12 (configuration not stated)	0.83	-1.6
CC(=O)O[C@@H]1CC[C@@]2(C)C(C[C@@H](OC(C)=O)[C@@]3(C)C4=CC(=O)O[C@@H](c5ccoc5)[C@]4(C)CCC23)C1(C)C (some centres not stated)	-1.01	/
COC(=O)c1noc(C)c1-c1ccn[nH]1	/	0.22
